Screening data deposited in PubChem BioAssay by ICCB-Longwood Screening Facility, Harvard Medical School.
S aureus helic: blocks Staphylococcus aureus DNA helicase; purified S. aureus helicase, fluorescence unwinding assay; about half of the hits fall short of the stated cut; inhibition, %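 (tested at about 80 µM)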; 120,000 tested, 0.05% active;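 active = both duplicates at 50% or more, or one of them with a favoured structure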;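 note: 0% = mean of negative control wells and 100% = mean of positive control wells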
MgrA DNA FP: modulators of Staphylococcus aureus MgrA DNA binding; fluorescence polarization; inhibition, %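 (about 10 µg/mL by stock and volumes)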; 84,000 tested, 0.13% active;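 active = above 50% in either of two replicates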;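 note: 0% = protein plus DNA without compound and 100% = DNA alone without protein; higher means less MgrA bound to DNA so lower polarization; one replicate is shown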
An asterisk follows results filed as active; x = no result given. A portion of the library; rates above refer to the full screens.

S aureus helic	MgrA DNA FP	mol
x	2.1	O=C(OCc1nccn1Cc1ccc(Cl)cc1)c1ccccc1Cl
10	3.2	Cc1ccc(Cn2cc(CO)c3ccccc32)cc1
x	0.0	CCSc1nnc2c(n1)OC(c1cc(Br)ccc1OC)Nc1ccccc1-2 (stereo not drawn)
-19	0.9	CC1(C)CC(NCCCN2CCCCC2)=CC(=[N+]2CCCCC2)C1
x	-2.4	COc1cc(Br)c(/C=C2\C(=O)N(c3cccc(Cl)c3)N=C2C)cc1OC
x	-0.3	COc1ccc(C2=NN(C(=O)c3ccc(Cl)cc3)C(c3cccc([N+](=O)[O-])c3)C2)cc1 (stereo not drawn)
x	3.2	CCOC(=O)c1sc(SC(C)C)c2c1CC(C)(C)CC2=O
9	x	Cc1c(CN2CCN(c3cccc(C(F)(F)F)c3)CC2)c(=O)n(-c2ccccc2)n1C
x	-0.8	CCCCc1ccc(NC(=O)Nc2ccc(N3CCCCC3)cc2)cc1
14	-1.8	O=C(Cc1ccccc1)c1ccc2c(c1)OCO2
11	-0.9	Cc1nn(-c2ccccc2)c(Cl)c1/C=N/NC(=O)c1cccnc1
-4	x	CCC(C)NC(=O)c1cc(-c2cccs2)nc2c1c(C)nn2-c1ccccc1 (stereo not drawn)
3	x	Cc1ccc(S(=O)(=O)NCC2CCC(C(=O)NCc3cccnc3)CC2)cc1 (stereo not drawn)
27	x	NC(=O)c1ccsc1NC(=O)COC(=O)c1ccccc1
x	9.7	S=c1[nH]c2ccccc2[nH]c1=S
1	1.2	CCN(CC)C(=O)N1CCN(CCC#N)CC1
9	x	OC(Cn1cccn1)c1ccccc1 (stereo not drawn)
1	-2.5	CN(C)C(=O)CSc1nnc2n1C(C)(C)Cc1ccccc1-2
x	-2.8	CC(=O)c1ccc(OCc2ccccc2)cc1OCc1ccc(F)cc1
6	x	COC(=O)CNS(=O)(=O)c1ccc(C)cc1

Three compounds from above, arranged by the value under MgrA DNA FP, largest number first:
S aureus helic	MgrA DNA FP	mol
1	1.2	CCN(CC)C(=O)N1CCN(CCC#N)CC1
1	-2.5	CN(C)C(=O)CSc1nnc2n1C(C)(C)Cc1ccccc1-2
x	-2.8	CC(=O)c1ccc(OCc2ccccc2)cc1OCc1ccc(F)cc1

New compounds follow
S aureus helic	MgrA DNA FP	mol
7	9.6	CN(C)c1ccc(-c2oncc2C#N)cc1
6	x	Cc1cccn2cc(-c3ccccc3)nc12
1	x	NC(N)=N/N=C1\CCc2ccccc21
16	x	COc1ccc(C(C)NC(=O)CCc2ccccc2)cc1 (stereo not drawn)
14	x	O=S(=O)(NCC(c1ccccc1)N1CCNCC1)c1ccccc1 (stereo not drawn)
6	-7.1	CCC(=O)c1[nH]c(C)c(C(=O)CC)c1C
5	x	Cc1ccccc1NS(=O)(=O)c1ccccc1
-14	x	Cc1ccc2occ(CC(=O)N(C)Cc3ccccc3)c2c1
-3	3.4	CCCOc1ccc(C2C3CN(CC)CC=C3C(C#N)=C(N)C2(C#N)C#N)cc1OC (stereo not drawn)
2	-5.0	COc1ccccc1NC(=O)c1ccc(OCC(=O)O)cc1
12	x	Cc1ccc2cc(-c3noc(CC(C)C)n3)c(=O)[nH]c2c1
x	3.5	CCC(=O)NCc1ccc(Cl)cc1Cl
x	-9.5	OC(CN1CCNCC1)Cn1c2ccc(Br)cc2c2cc(Br)ccc21 (stereo not drawn)
x	-2.3	COc1ccccc1-c1coc2ccccc2c1=O
2	x	N#Cc1ccc(COC(=O)CN2C(=O)COc3ccccc32)cc1
-1	x	CC(=O)O/N=C(\C)c1c(OC(C)=O)ccc2c(C)cc(=O)oc12
-15	x	O=C(c1cc2c(s1)-c1ccccc1S(=O)(=O)C2)N1CCCCC1
8	x	Cc1ccc(-c2nc3nc(C)cc(=O)n3[nH]2)cc1
0	x	NS(=O)(=O)c1cccc2cc(C(=O)O)c(O)cc12
-1	-4.3	Cc1ccc(F)c(NC(=O)C(F)(F)C(F)F)c1
4	-3.1	COc1cc2c(cc1OC)C(C)N(C(C)=O)CC2 (stereo not drawn)
15	x	C=CCNc1nc(C(=O)OCC(=O)NCc2cccc(OC)c2)cs1
x	-1.1	CCOC(=O)c1ccc(N2CCOCC2)c(N=Cc2cc(Br)cc(Br)c2O)c1
-19	1.6	CCC1CCCCN1C(=O)COC(=O)CSc1cc(C)ccc1C (stereo not drawn)
-8	1.0	Cn1c(-c2ccccc2)nc2cc(N)ccc21
8	-5.3	CCn1c(CNC(=O)C(OC)c2ccccc2)nnc1SC (stereo not drawn)
-7	x	CCOc1ccc(-n2c(SCC(=O)NC(=O)CN3CCCC3=O)nc3ccccc32)cc1
x	-2.0	O=C(Nc1cccc(Cl)c1)C12CC3CC(CC(C3)C1)C2
1	x	Cc1ccc(O)c(C(=O)c2cnn3c(=S)[nH]nc3c2)c1
5	-4.0	Cc1noc(NS(=O)(=O)c2ccc(NC3OC(=O)c4ccccc43)cc2)c1C (stereo not drawn)
7	1.2	C(=C\c1ccccc1)/C=N/[n+]1ccccc1
-1	-0.5	CCOC(=O)c1oc2ccc(S(=O)(=O)Nc3ccc4[nH]c(=O)[nH]c4c3)cc2c1C
-8	-0.1	COc1ccc(CC(=O)NC2CCCCC2)cc1OC
-10	x	Cc1nn(Cc2ccccc2Cl)c(C)c1C(=O)NC1=NCCS1
4	0.8	O=C(O)Nc1cc(Cl)cc(Cl)c1
x	-1.1	Cc1nnc(-c2cc(-c3ccc(Cl)cc3)oc2C(F)(F)F)o1
13	0.6	Cc1nc2c3ccccc3n(CC(=O)c3ccc(Br)cc3)c(=O)n2n1
-12	1.2	Cc1ccc(S(=O)(=O)C(C)C(=O)c2ccc3c(c2)OCCO3)cc1 (stereo not drawn)
13	-0.8	COc1cccc2oc(-c3ccccc3)c(Br)c12
-7	x	Cc1nc(=O)c(-c2ccccc2)c(C)n1CCCCCC(=O)O
5	0.1	O=C(CSC1=NCCS1)C12CC3CC(CC(C3)C1)C2
-21	x	O=C(NC1CCCC1)C1CCN(c2ccccc2)C1=O (stereo not drawn)
4	-2.8	COc1ccc2c(Cl)c(C(=O)Nc3ccc(C(N)=O)cc3)sc2c1
7	-3.2	CC(C)NC(=O)C1CCCCC1C(=O)O (stereo not drawn)
5	0.4	Cc1cc(N2CCN(c3cccc(C)c3C)CC2)nc(-c2ccccc2)n1
18	x	Cc1ccc(CNC(=O)c2ccc(N3CCSc4ncccc43)s2)o1
3	-0.5	CCCNC(=O)N1CCC(C(=O)c2cccc(F)c2)CC1
-13	5.0	CN1C(=O)C(=Cc2ccc(-c3cccc(Cl)c3)o2)C(=O)N(C)C1=S
x	0.5	CSc1cc(=O)c2ccccc2s1
5	0.7	COC(=O)NCc1cc(OC)c(OC)c(OC)c1

Reformatted with tabs: 7 of the compounds above.
Molecule	S aureus helic	MgrA DNA FP
CC(C)NC(=O)C1CCCCC1C(=O)O (stereo not drawn)	7	-3.2
Cc1cc(N2CCN(c3cccc(C)c3C)CC2)nc(-c2ccccc2)n1	5	0.4
Cc1ccc(CNC(=O)c2ccc(N3CCSc4ncccc43)s2)o1	18	x
CCCNC(=O)N1CCC(C(=O)c2cccc(F)c2)CC1	3	-0.5
CN1C(=O)C(=Cc2ccc(-c3cccc(Cl)c3)o2)C(=O)N(C)C1=S	-13	5.0
CSc1cc(=O)c2ccccc2s1	x	0.5
COC(=O)NCc1cc(OC)c(OC)c(OC)c1	5	0.7

Next part:
S aureus helic	MgrA DNA FP	mol
-15	x	Cc1csc(C(C#N)C(=O)CSc2ccc3c(c2)OCCO3)n1 (stereo not drawn)
-8	x	CCCCCCCc1c(O)nc(SCCN2CCOCC2)n(-c2ccccc2)c1=O
-5	x	CC12CCC(=O)N1C(C(=O)Nc1nccs1)CS2 (stereo not drawn)
x	-0.1	CC(=O)c1cc([N+](=O)[O-])ccc1Sc1ccc(Cl)cc1
-1	-1.1	CN(C)CCCN1C(=O)C(O)=C(C(=O)c2cccs2)C1c1ccco1 (stereo not drawn)
-7	1.4	CC1CCCN(C(=O)Cc2cn(Cc3cccc(Cl)c3)c3ccccc23)C1 (stereo not drawn)
20	1.9	CCOCC(=O)N1CCc2ccccc21
-32	x	Cc1nnc(SCC(=O)NCCN2CCOCC2)c2nn(-c3ccccc3)c(C)c12
x	2.2	CCOC(=O)c1nc(C)n(-c2cc(Cl)cc(Cl)c2)n1
3	-3.0	CCCCn1c(CCCNC=O)nc2ccccc21
x	0.0	N#C/C(=C\Nc1ccccc1F)c1nc(-c2cc3cc(Br)ccc3oc2=O)cs1
11	0.3	O=C(c1cccc(C(F)(F)F)c1)N1CCCCC1
-19	1.6	Cc1nnc(C)c2c(C)n(-c3ccccc3N)c(C)c12
6	-0.8	CCOC(=O)CC1=C(C#N)C(c2cccnc2)C(C(=O)OCC)=C(N)O1 (stereo not drawn)
-11	x	O=C(O)c1cccc(NC(=S)N/N=C/c2cccc(O)c2)c1
x	1.3	CC1C(c2ccccc2)OCCN1C(=O)CCC(=O)N1CCOC(c2ccccc2)C1C (stereo not drawn)
8	-1.5	Oc1ccc(C=NC2c3ccccc3-c3ccccc32)cc1
x	-0.1	CCOC(=O)c1c(NC(=O)c2ccc(Cl)cc2)sc(C(=O)Nc2ccc3c(c2)OCO3)c1C
0	-2.5	CCc1c(C)c2cc3c(-c4ccccc4)coc3cc2oc1=O
-1	-1.4	O=c1cc(CSc2nnnn2-c2ccccc2)[nH]c2nc3ccccc3n12

Profiles as entered above. Order of screens: S aureus helic, MgrA DNA FP
Results for N#C/C(=C\Nc1ccccc1F)c1nc(-c2cc3cc(Br)ccc3oc2=O)cs1 → x, 0.0
Results for CC1(C)CC(NCCCN2CCCCC2)=CC(=[N+]2CCCCC2)C1 → -19, 0.9
Results for N#Cc1ccc(COC(=O)CN2C(=O)COc3ccccc32)cc1 → 2, x
Results for CC12CCC(=O)N1C(C(=O)Nc1nccs1)CS2 (stereo not drawn) → -5, x
Results for O=C(Cc1ccccc1)c1ccc2c(c1)OCO2 → 14, -1.8

The listing continues:
S aureus helic	MgrA DNA FP	mol
25	2.5	Clc1ccc(OCc2nn[nH]n2)cc1
-20	x	CSc1ncc(C(=O)NCCCN2CCc3ccccc3C2)c(C)n1
13	-3.0	CCOC(=O)N1CCC(NC(=O)Cn2ncc3c4ccccc4n(C)c3c2=O)CC1
x	-1.8	CCOC(=O)c1sc(SC)c2c1CCc1conc1-2
-2	5.6	CC(=O)N1C(=N)S/C(=C/c2cc3ccccc3nc2Sc2ccccc2)C1=O
x	-1.2	Cc1cc(NC(=O)c2cc(C)oc2C)on1
10	-3.8	COC(=O)C(Cc1ccc(O)cc1)NC(=O)c1ccc(OC)c(OC)c1 (stereo not drawn)
5	x	Nc1ccc(S(=O)(=O)CCSS(=O)(=O)c2ccc(N)cc2)cc1
14	-2.8	COCc1cc(C)nc2sc(C(=O)N(C)c3ccccc3)c(-n3cccc3)c12
11	x	COc1ccc2nc(N3CCCC3)sc2c1
-21	1.7	O=C(COc1ccccc1O)NCC1CCCO1 (stereo not drawn)
16	x	COc1ccc(/C=C2\SC(=S)N(CCC(=O)Nc3ccc(C)cc3)C2=O)cc1OC
2	-0.5	COc1cccc(-c2nc3ccccc3s2)c1
-9	x	CC12CC3CC(C)(C1)CC(CO)(C3)C2
x	-1.8	Oc1ccccc1C=Nc1ccc(OC(F)(F)F)cc1
5	x	CCN(C(=O)COc1cc(=O)n(CC)c2ccccc12)c1cccc(Cl)c1
3	0.0	Cc1cc(C)c(S(=O)(=O)N2CCN(Cc3ccc4c(c3)OCO4)CC2)c(C)c1
9	4.3	CC(C)(C)NC(=O)c1ccccc1SCc1ccc(F)cc1
x	-2.7	COC(=O)c1c(C)nn(C)c1-c1snnc1C
4	0.8	Cc1c(C)n(C(=O)CSc2ncn[nH]2)c2ccccc12
12	-1.2	COC(=O)c1cccc(NC(=O)COC(=O)CSc2nc(C)cc(C)n2)c1
9	-0.5	O=S1(=O)CCC(NNC(=S)Nc2ccccc2)C1 (stereo not drawn)
15	-1.9	O=C(c1cc2ccccc2oc1=O)N1CCOCC1
-4	x	O=C(/C=C/c1ccc(Br)o1)N(Cc1nc2ccccc2c(=O)[nH]1)CC1CCCO1 (stereo not drawn)
x	0.0	CN1CCN(c2ccc(CNC(=O)c3ccc4c(c3)OCCO4)cc2)CC1
18	x	O=C1c2ccccc2C(=O)N1CC(=O)N1CCc2ccccc21
5	2.8	O=C1/C(=C/c2ccc(O)cc2)N=C(c2ccccc2)N1c1nc2cc(Cl)c(F)cc2s1
7	-1.4	O=C(COc1ccccc1C(=O)O)Nc1ccc(Br)cc1
4	x	CC(Oc1ccc(F)cc1)C(=O)Oc1ccc(Cl)cc1 (stereo not drawn)
x	2.1	CC(N)C(=O)OC(C)(C)Cc1ccc(Cl)cc1 (stereo not drawn)
17	x	O=c1ccc2ccc(OCc3ccc(F)cc3)cc2o1
x	1.0	O=S(=O)(Nc1ccccc1N1CCOCC1)c1ccc(-c2ccccn2)s1
-5	-0.6	O=S(=O)(c1ccc(N=Cc2ccncc2)cc1)c1ccc(N=Cc2ccncc2)cc1
x	-0.5	CC(C)CCNC(=O)Oc1ccccc1
x	-1.5	COc1ccc(-c2cc(C(F)(F)F)n3nc(C(=O)N4CCSCC4)c(Cl)c3n2)cc1OC
17	0.3	CCN(C(=O)c1cc2c(-c3ccc(Cl)cc3)nn(C)c2s1)c1cccc(Cl)c1
17	x	c1ccc2c(c1)CCN(CCCNc1nc3ccccc3n3cnnc13)C2
6	-1.2	COCCN(Cc1cc2cc(C)c(C)cc2nc1Cl)C(C)=O
-17	x	Cc1cnc(C(=O)OCc2c(C)cc(C(C)(C)C)cc2C)cn1
6	-0.9	CSC(=NC1CCCCC1)NC#N
-2	x	O=C1CN(c2ccc(S(=O)(=O)N3CCCC3)cn2)CCN1
14	0.6	O=C(CNC(=O)c1ccccc1F)NCc1ccco1
11	x	S=C(NCC1CCCO1)N/N=C/c1cccnc1 (stereo not drawn)
